# Mtb bLac sens = beta-lactam sensitization of Mtb H37Rv. M. tuberculosis H37Rv growth with meropenem, percent inhibition; hits of this screen are not shown here. actives 0.27% (n = 330,000). inhibition, % at 25 µM;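 active = about 74% or more and at least 40 points above the plate without the antibiotic, then above 30% in a dose series; inconclusive = first-round hits that could not be retested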;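 note: growth measured after seven days incubation then overnight dye step; 0% = bacteria only wells and 100% = bacteria with antibiotic; twin plates without the antibiotic show which effects depend on it; some results filed as inactive read as strong as hits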
# * = called active by the depositor; u = inconclusive. This is a subset (hit frequency here may not be typical).
mol	Mtb bLac sens
O=C(Nc1ccccc1N1CCOCC1)c1cc2ccccc2o1	0
COc1ccc(OC)c(NC(=O)COC(=O)COc2ccc(Nc3ccccc3)cc2)c1	76
O=C(COC(=O)C1COc2ccccc2O1)Nc1ccc(Cl)cc1 (stereo not given)	-1
O=C(NNC(=O)c1ccco1)c1ccc(NS(=O)(=O)c2cccs2)cc1	44
Cc1ccc(C(=O)OCC(=O)NC2CCCC(C)C2C)cc1S(=O)(=O)N1CCCCC1 (stereo not given)	3
CC(=O)c1ccc(OCC(=O)OCC(=O)NCc2ccco2)cc1	4
COc1ccc(NC(=O)CCCN2C(=O)CN(C)C2=O)cc1Cl	-5
O=C(/C=C/c1ccccc1)OCC(=O)c1c[nH]c2ccccc12	-8
O=C(Nc1ccc(F)cc1F)c1ccc(S(=O)(=O)NCc2ccco2)cc1	1
Cc1ccc(CNC(=O)c2ccc(N3CCC4(CC3)CC(c3cccc(Br)c3)=NO4)c(NC(=O)c3ccc(Br)cc3)c2)cc1	-4
CN(C)S(=O)(=O)c1cccc(NC(=O)COC(=O)c2cccnc2Cl)c1	-6
Cc1ccc2c(c1)c1c(n2CCc2ccc(C)nc2)CCN(C)C1	1
O=C1C=CC(=O)N1	-7
O=C(Nc1cc(C(F)(F)F)ccc1Cl)c1cccnc1	-10
O=C(NC1CCCCC1)C(c1ccccc1)N(C(=O)c1csnn1)C1CC1 (stereo not given)	3
COc1ccc(NC(=O)N(C)C[C@H]2Oc3c(NC(=O)C4CC4)cccc3C(=O)N([C@H](C)CO)C[C@@H]2C)cc1	-9
COc1cc(C=O)ccc1Oc1ccc(S(=O)(=O)N2CCOCC2)cc1[N+](=O)[O-]	-4
Cc1ccc(S(=O)(=O)N2CCN(C(=O)C3CSC4(C)CCC(=O)N34)CC2)cc1C (stereo not given)	3
O=C(OCC#CCSc1nnc(-c2cccc3ccccc23)o1)c1cnc[nH]1	14
CC(=O)c1ccc(S(=O)(=O)NCCC(=O)NC(C)c2ccncc2)cc1 (stereo not given)	-1
C[C@H]1CN([C@@H](C)CO)C(=O)c2cc(NC(=O)C3CCCCC3)ccc2O[C@H]1CN(C)CC1CCCCC1	-1
CC(C)Cc1ccc(CN2CCCC(NC(=O)CCn3cnnn3)C2)cc1 (stereo not given)	u
CC1CC(C)CN(C(=O)c2cccc(NC(=O)CC3SC(N4CCCCC4)=NC3=O)c2)C1 (stereo not given)	-5
CNS(=O)(=O)c1cccc(C(=O)NCC(c2cccs2)N2CCOCC2)c1 (stereo not given)	-2
CN(C)Cc1c(O)ccc2c(=O)c(-c3ccccc3Cl)coc12	-1
Cc1nn(-c2ccccc2)c(C)c1C(=O)OCC(=O)Nc1ccccc1F	-2
Cc1ccc(C(=O)OCC(=O)c2c(N)n(C)c(=O)n(C)c2=O)cc1S(=O)(=O)N1CCOCC1	-6
COc1ccc(C2=CC(=O)C[C@H](c3ccc(OC)cc3)C2)cc1	77
CC(C)N(C(=O)[C@H]1CC(CC(=O)NCCCn2ccnc2)C(=O)N2CCc3c([nH]c4ccccc34)[C@]12C)C(C)C (stereo not given in full)	-2
Cc1ccc(C)c(C(=O)COC(=O)Cn2[nH]c(=O)c3ccccc3c2=O)c1	-10
CCCc1cc(=O)[nH]c(SCC(=O)Nc2ccc(OC)c(S(=O)(=O)N3CCCCC3)c2)n1	0
COc1ccc(C(C)(C)C)cc1NC(=O)CCc1c(C)noc1C	0
Cc1ccc(NC(=O)CCN2C(=O)NC3(CCCC3)C2=O)c(C)c1	3
Cc1cccc(OCc2nnc(SC(C)C(=O)Nc3ccc(N4CCOCC4)cc3)o2)c1 (stereo not given)	-2
O=C(Nc1ccc(Br)c(Br)c1)C1CCCO1 (stereo not given)	-8
Cc1cc(NC(=O)CSCC(=O)OCC(=O)c2cccc(Br)c2)no1	3
COc1ccc(N(CC(=O)NCc2ccc(F)cc2)C(=O)Cn2nnc(-c3ccc(C)o3)n2)cc1OC	-10
O=S(=O)(NC1C2CC3CC(C2)CC1C3)c1ccccc1 (stereo not given)	3
CCCCC[C@@H]1C=C(C(=O)O)[C@H](c2ccc(F)cc2)N1S(=O)(=O)c1ccc(C)cc1	-9
O=C1NC(Cc2ccc(O)cc2)c2nc3ccccc3c(=O)n2-c2ccccc21 (stereo not given)	-2
Fc1ccc2cnc(CCO[C@H]3CCCCO3)cc2c1	-3
O=C(c1ccco1)N1CCCC(c2nc3c(nnn3Cc3cccc(Cl)c3)c(=O)[nH]2)C1 (stereo not given)	-6
Cc1ccc2c(c1)C(=O)C(=O)N2Cc1ccc(Cl)cc1	7
CCOc1cc(C(=O)Nc2cccc(OCC(=O)N3CCOCC3)c2)cc(OCC)c1OCC	-2
COCCN(C(=O)c1ccc(N2CCCC2=O)cc1)c1c(N)n(Cc2ccccc2)c(=O)[nH]c1=O	5
N#CCN=C(c1ccccc1)c1ccccc1	2
O=C(NCCCN1CCOCC1)c1cc(S(=O)(=O)N2CCOCC2)ccc1Cl	-8
CCCCn1nc(C(=O)Nc2ccc(-n3cnnn3)cc2)c2ccccc2c1=O	3
NC(N)=NC(N)=Nc1ccccc1	-1
Cc1ccc(S(=O)(=O)Nc2ncnc3sc(C)c(C)c23)cc1	-6
Cc1ccccc1Nc1nc(N)nc(COC(=O)c2c(C)noc2C)n1	2
COC(=O)c1cc(NC(=O)COC(=O)CCc2nc3ccccc3c(=O)[nH]2)cc(C(=O)OC)c1	-8
Cc1ccc(NC(=O)CNc2cccc(Br)c2)cc1S(=O)(=O)N1CCOCC1	-7
Cc1ccc(S(=O)(=O)NCc2ccccc2)cc1C(=O)N1CCN(c2ccccc2)CC1	11
COC(=O)C1=C(c2ccc(F)cc2OCc2ccccc2)C[C@@H]2CC[C@H]1N2C(=O)NCc1ccc(F)cc1	-8
OCC1=C[C@@H](O)C2C=CO[C@@H](O[C@@H]3O[C@H](CO)[C@@H](O)[C@H](O)[C@H]3O)C12 (stereo not given in full)	-1
CCCCn1c(N)c(N(CC(C)C)C(=O)CCNC(=O)c2ccc(Br)cc2)c(=O)[nH]c1=O	2
CCCCn1c(N)c(N(CCC(C)C)C(=O)COC(=O)c2ccc([N+](=O)[O-])s2)c(=O)[nH]c1=O	1
O=C(C1=COCCO1)N(Cc1nnc(-c2ccccc2Cl)o1)C1CC1	4
O=C(COC(=O)CNC(=O)c1ccccc1F)Nc1ccc(Cl)cn1	-1

# More structures
mol	Mtb bLac sens
COC(=O)C1CCN(C(=O)c2ccc(Cl)c(S(=O)(=O)NCc3ccco3)c2)CC1	-5
CCC(=O)NC(c1ccco1)c1cc(Cl)c2ccccc2c1O (stereo not given)	2
COc1ccc(S(=O)(=O)N2CCCCC2)cc1NC(=O)c1ccc(N2CCCC2=O)cc1	-1
CC(=O)Nc1ccc(SCc2csc(C)n2)cc1	-11
C#CCOCCOCCOCCNc1nc(N2CCN(C(=O)[C@H](CO)n3cc([C@@H](N)C(C)C)nn3)CC2)nc(N2CCN(C(=O)[C@H](CCC(=O)O)n3cc([C@@H](N)CCCCN)nn3)CC2)n1	-11
Cc1ccc(F)cc1NC(=O)CSCc1c(C)noc1C	-4
CCn1c(SCC(=O)N2CCCC2=O)nnc1-c1cccs1	-5
CCOc1ccccc1Nc1nnc(SCC(=O)N(C)C2CCS(=O)(=O)C2)s1 (stereo not given)	-1
COc1cc2ccccc2cc1C(=O)OCc1nc2ccsc2c(=O)[nH]1	0
COC(=O)C1=CN(Cc2ccc(OC)c(OC)c2)C=C(C(=O)OC)C1c1ccc(F)cc1	-24
COc1ccccc1NS(=O)(=O)c1ccc2oc(SCC(=O)N3CCNC3=O)nc2c1	-5
N#CC1(NC(=O)COC(=O)CNC(=O)c2sc3ccccc3c2Cl)CCCCC1	-10
CCCn1nc(C(=O)NNC(=O)c2ccc(C)c(C)c2)c2ccccc2c1=O	94
CC(=O)Nc1ccc(S(=O)(=O)NCCC(=O)NNC(=O)c2ccccc2O)cc1	-1
COc1ccc(C(=O)NCCN2CCOCC2)cc1S(=O)(=O)Nc1ccc(C)cc1	-7
CCC(C)(C)C1CCc2[nH]nc(C(=O)NCc3ccc(OC)cc3)c2C1 (stereo not given)	-15
O=C(CCC(=O)N1CCOCC1)NCCc1ccc(F)cc1	-8
NC(=O)c1ccc(-c2c(-c3ccccc3)sc3ccccc23)cc1	4
C[C@@]12C(=O)N(CCc3c[nH]c4ccccc34)CC(=O)N1[C@H]1c3ccccc3OC[C@@H]1[C@@H]2c1ccccc1	98
CCc1ccc(C(=O)N2CCN(S(=O)(=O)c3sc(C(=O)O)c(C)c3C(=O)O)CC2)cc1	1
COc1ccccc1NS(=O)(=O)c1ccc(C)c(C(=O)N2CCN(c3ccc(O)cc3)CC2)c1	5
CC1CC(C)CN(S(=O)(=O)c2ccc(NC(=O)CCN3C(=O)C4CC=CCC4C3=O)cc2)C1 (stereo not given)	-12
Cc1ccc(CN(C)C(=O)CCc2c[nH]c3ccccc23)o1	0
O=C(NCCCCc1ccccc1)C1CCCC1	-8
O=C(NCC1CC1)c1ccc2c(c1)S(=O)(=O)c1cc(Cl)ccc1C2=O	-9
CC(C)c1ccc(NC(=O)COC(=O)C2CCCCC2)cc1	-1
O=C(Nc1ccnn1C1CCN(Cc2ccc(OC(F)F)cc2)CC1)C1CCCC1	-5
CC1(C)CC2CC(C)(CN2C(=O)COC(=O)c2ccc(O)cc2O)C1 (stereo not given)	-5
Cn1c(N)c(C(=O)COC(=O)/C=C/c2ccccc2Cl)c(=O)n(C)c1=O	-6
CCNC(=O)NC(=O)C(C)N1C(=O)NC(c2ccccc2)(c2ccccc2)C1=O (stereo not given)	-9
O=C(CNC(=O)c1ccccc1Cl)NCCc1cccs1	-2
Cc1ccc(S(=O)(=O)N2CCC(C(=O)OCCOc3cccc(C)c3)CC2)cc1	37
C=CCN1C(=O)c2ccc(C(=O)OCC(=O)Nc3ccccc3OC)cc2C1=O	-5
C=CC(=O)OCCOCCOCCOCCOC(=O)C=C	-3
CC(Sc1ncccn1)C(=O)NC1CCCC1 (stereo not given)	-8
N#Cc1cccc2cccc(S(=O)(=O)N3CCOCC3)c12	12
CC(=O)c1c(C)[nH]c(C(=O)OCc2cc(=O)n3cc(Br)ccc3n2)c1C	-2
Cn1cnnc1SCC(=O)c1ccc2c(c1)NC(=O)CO2	6
CCCCN(C(=O)c1c(CC)noc1C)c1c(N)n(CC(C)C)c(=O)[nH]c1=O	7
Cc1ccc(NC(=O)COC(=O)Cn2cnc3ccccc32)c(C)c1	-1
Cc1cccc(C)c1NC(=O)CN1CCN(CCCC(c2ccc(F)cc2)c2ccc(F)cc2)CC1	100
Cn1nnnc1Sc1ncnc2scc(-c3ccc4c(c3)OCO4)c12	46
N#Cc1ccsc1NC(=O)C1=COCCO1	4
Cc1ccc(OCCOc2ccc(S(=O)(=O)N3CCCC3)cc2C(N)=O)cc1	12
CCOC(=O)[C@H]1[C@H]2COc3ccc(C)cc3[C@@H]2N2C(=O)c3cc(Br)ccc3NC(=O)[C@@]12C	-2
O=C(Nc1nc2ccc(F)cc2s1)C1CC(=O)N(c2ccc3c(c2)OCCO3)C1 (stereo not given)	7
Cc1ccccc1CNC(=O)c1ccccc1N(C)S(=O)(=O)c1ccccc1	-3
CC(C)(C)c1ccc(C(=O)NCC(=O)OCC(=O)NC(=O)NC2CCCC2)cc1	-8

# Arranged by molecular weight (rising): three of the compounds above.
mol	Mtb bLac sens
Cc1ccc(NC(=O)COC(=O)Cn2cnc3ccccc32)c(C)c1	-1
CC(=O)c1c(C)[nH]c(C(=O)OCc2cc(=O)n3cc(Br)ccc3n2)c1C	-2
Cc1cccc(C)c1NC(=O)CN1CCN(CCCC(c2ccc(F)cc2)c2ccc(F)cc2)CC1	100

# (list continues)
mol	Mtb bLac sens
O=C(OCC(=O)N1CCCCCC1)c1ccc(Cl)nc1	17
NC(N)=NCCCC(NC(=O)c1ccccc1)C(=O)Nc1ccc2ccccc2c1 (stereo not given)	52
COc1ccc(/C=C/C(=O)OCC(=O)Nc2cccc(S(=O)(=O)NC3=NCCCCC3)c2)cc1	6
CCOc1cc(C(=S)N2CCOCC2)ccc1OC(=O)c1ccccc1	-5
COC(=O)c1c(-c2ccc(S(C)(=O)=O)cc2)sc2cc(OC)ccc12	3
CN(CC(=O)Nc1ccc(F)cc1)CC(=O)N(C)C1(C#N)CCCCC1	5
COc1ccc(N2CCN(C(=O)COC(=O)c3ccc(Cl)nc3)CC2)cc1	51
Cc1cc(OCC(=O)OCC(=O)NCc2cccs2)ccc1Cl	5
Cc1ccc2c(Cl)cc(Cl)c(OCC(=O)N3CCOCC3)c2n1	-1
COC(=O)C1=C(c2c(C)noc2C)C[C@@H]2CC[C@H]1N2C(=O)N1CCC(C)CC1	-11
Cc1ccccc1OCCOC(=O)c1cc(S(=O)(=O)N2CCCCC2)ccc1N1CCOCC1	-7
COC1=CC(=O)[C@]2(C=C1OC)OC[C@@H]1Oc3c(ccc4c3C=CC(C)(C)O4)C(=O)[C@@H]12	5
CN(CC(=O)Nc1ccc(F)cc1)C(=O)c1cn(-c2ccccc2)nc1-c1cccs1	-1

# Part of the list above, as labelled records.
Cc1cc(OCC(=O)OCC(=O)NCc2cccs2)ccc1Cl
  Mtb bLac sens: 5
Cc1ccc2c(Cl)cc(Cl)c(OCC(=O)N3CCOCC3)c2n1
  Mtb bLac sens: -1
COC(=O)C1=C(c2c(C)noc2C)C[C@@H]2CC[C@H]1N2C(=O)N1CCC(C)CC1
  Mtb bLac sens: -11
Cc1ccccc1OCCOC(=O)c1cc(S(=O)(=O)N2CCCCC2)ccc1N1CCOCC1
  Mtb bLac sens: -7

# High-throughput results: PubChem, Southern Research Specialized Biocontainment Screening Center
